Rango complex inh: prevents formation of the Rango-importin beta complex; Rango CFP/YFP FRET sensor + importin beta, 45 min; Potency, µM (titrated, usually from 92.2 µM), inactives show top-dose inhibition of complex formation; 340,000 tested, 0.031% active; AID 540263; active = rising FRET ratio curve, often small or poorly fitted; inconclusive = mostly compound fluorescence or quenching in the first reads; inactive = flat curves in all reads;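 also: potency is read from the fitted curve at half-maximal effect; 0% = DMSO wells and 100% = buffer wells lacking importin beta; nearly all actives have a fitted effect of over 15% in size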
Target sequence (Q14974 whole entry, looked up): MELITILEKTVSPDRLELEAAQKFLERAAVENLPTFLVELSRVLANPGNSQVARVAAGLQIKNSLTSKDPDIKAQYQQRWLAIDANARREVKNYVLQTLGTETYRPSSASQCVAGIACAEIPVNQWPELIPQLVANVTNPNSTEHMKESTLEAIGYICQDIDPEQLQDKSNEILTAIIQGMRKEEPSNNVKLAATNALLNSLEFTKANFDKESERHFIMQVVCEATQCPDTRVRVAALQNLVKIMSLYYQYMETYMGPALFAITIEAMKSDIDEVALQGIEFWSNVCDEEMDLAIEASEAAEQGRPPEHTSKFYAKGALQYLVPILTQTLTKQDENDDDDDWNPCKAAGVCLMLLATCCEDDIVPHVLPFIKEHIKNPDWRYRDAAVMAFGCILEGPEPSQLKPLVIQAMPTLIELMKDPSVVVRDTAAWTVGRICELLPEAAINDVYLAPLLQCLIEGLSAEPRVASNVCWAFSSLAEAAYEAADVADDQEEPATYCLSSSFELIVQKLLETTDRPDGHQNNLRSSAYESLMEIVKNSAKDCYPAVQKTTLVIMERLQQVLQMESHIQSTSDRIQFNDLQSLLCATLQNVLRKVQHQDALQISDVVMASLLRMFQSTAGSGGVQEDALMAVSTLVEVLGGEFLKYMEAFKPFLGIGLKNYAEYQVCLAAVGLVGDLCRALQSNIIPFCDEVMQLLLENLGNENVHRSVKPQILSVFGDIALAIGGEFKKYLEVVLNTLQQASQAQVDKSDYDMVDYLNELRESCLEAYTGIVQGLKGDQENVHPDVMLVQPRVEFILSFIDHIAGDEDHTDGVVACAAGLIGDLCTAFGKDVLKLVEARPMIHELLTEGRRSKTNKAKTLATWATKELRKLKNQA
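FRET biosensor (snurportin 1 IBB flanked by EYFP and cerulean), 50 nM, with compound 5 min, then 0.125 microM importin beta in PBS, 1 mM DTT, 0.02% Tween-20, 0.1% BSA. CFP/YFP ratio read after 45 min at room temperature; pre-read flags interference.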
GLA inh pH 4.5: blocks human alpha-galactosidase A at pH 4.5; P06280; purified enzyme, 4-MU-alpha-Gal fluorescence, pH 4.5; activity change, negative = inhibition, % at 105 µM; 230,000 tested, under 10 active; inconclusive = small, poorly fitted or top-dose-only inhibition, or a rising curve; inactive = flat fitted curve, though single readings scatter; no compound was filed as active;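 also: 0% = full activity with enzyme and -100% = basal without enzyme; dose as in the result columns while the protocol names 77 µM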
Rango release inh: inhibition of RanGTP-driven Rango-importin beta dissociation; O95149+P62826; Biochemical FRET Rango-importin beta, RanGTP-induced dissociation; Potency, µM (top dose mostly 46.1 µM), inactives show at the top dose activity change, negative = inhibition; 340,000 tested, 0.071% active; active means falling FRET ratio curve, often poorly fitted, with flat reads before Ran was added; inconclusive means other falling curves, or compound fluorescence or quenching; inactive means flat or rising ratio curve;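 also: potency is read from the fitted curve at half-maximal effect; % of control where 0% means no effect; nearly all actives have a fitted effect of over 45% in size; -100% = wells without RanGTP and RCC1; the record marks most hits as doubtful in a second field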
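Quantitative HTS using a FRET biosensor: 0.1 uM Rango, 0.25 uM importin beta, 0.6 uM Ran, 2 mM GTP, 0.2 uM RCC1 final, PBS with DTT, Tween-20 and BSA. Post-read taken 45 min after Ran addition.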
miR-21 FLuc: raises the signal of a miR-21 reporter | HeLa miR-21 FLuc reporter, luciferase, 48 h | Potency, µM (highest dose often 38.3 µM), without a hit: at the top dose reporter change, positive = more light | 340,000 tested, under 10 active | AID 2288; active = well fitted rising curve with a large enough effect; inconclusive = small, poorly fitted or top-dose-only effect; inactive = no such curve, though single readings can be large or run the other way;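 also: % of control where 0% means no effect; miR-21 action dims this reporter so a rising signal means less miR-21 action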
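HeLa miR-21-FLuc reporter line, endogenous miR-21; 2000 cells/well in DMEM/10% FBS; compound titration up to ~40uM final, 48 h, 37 degree Celsius; luciferase detection reagent, 15 min lysis, CCD luminescence.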
* hit, by the source's call; ? = inconclusive; . = not tested or not shown; & = joins results of further samples.

SMILES	Rango complex inh	GLA inh pH 4.5	Rango release inh	miR-21 FLuc
C/C=C/C(=O)OCC(=O)Nc1ccc(C)c(S(=O)(=O)N(C)C)c1	-0.2%	-12	-3%	1%
CC(=O)c1cccc(NC(=O)c2csc(-n3nc(C)cc3C(F)(F)F)n2)c1	-1.4%	-16	-3%	-6%
O=C1OCCN1C(=O)[C@H]1[C@H](c2ccc([N+](=O)[O-])cc2)C(c2ccccc2)=NN1c1ccccc1	-0.1%	-11	-13%	.
N#Cc1cc(-c2ccccc2)nnc1Oc1ccccc1Cl	-0.7%	1	9%	0%
COc1ccc2c(C(=O)c3ccc(C)cc3)n(CCC(N)=O)[n+]([O-])c2c1	3.5%	.	16%	-4%
COc1cc(C(=O)O)c([N+](=O)[O-])c(OC)c1OC	4.5%	2	4%	-1%
CCOc1ccc(S(=O)(=O)NCc2ccncc2)cc1	-1.0%	8	0%	22%
COc1cccc(NC(=O)CN(C)S(=O)(=O)/C=C/c2ccccc2)c1	1.9%	.	-14%	.
COc1ccc([C@H]2CC(=O)C=C(c3cccc(NC(C)=O)c3)C2)cc1	-3.0%	.	-1%	.
CCOCCCn1c(=NC(=O)c2cccs2)c(C#N)cc2c(=O)n3cccc(C)c3nc21	?	?	?	-1%
O=CN1CCN(CC(O)Cn2c3ccccc3c3ccccc32)CC1 (stereo unspecified)	6.1%	.	20%	-3%
Cc1cc(NC(=O)COc2ccc(Cl)cc2Cl)n(-c2ccccc2)n1	0.4%	2	11%	8%
O=C(CN1C(=O)NC2(CCCC2)C1=O)NCc1ccc(F)cc1	-2.1%	.	-6%	.
CCn1c(=O)c2c(nc3n2CCCN3CCc2ccccc2)n(C)c1=O	0.5%	2	1%	1%
COc1ccc(C(=O)NCC(=O)Nc2ccccc2)cc1OC	-2.7%	-10	7%	-10%
C=CCNC(=O)N1CCCC(C(=O)c2cccc(OC(C)C)c2)C1 (stereo unspecified)	-5.0%	.	23%	-30%
Fc1ccc(/C=C\c2nccc3c2[nH]c2ccccc23)cc1	?	18	?	-8%
CNC(=O)NC(=O)Cn1nc2n(c1=O)-c1ccccc1SC2	1.1%	6	0%	-1%
CSCCC(NC(=O)c1ccco1)C(=O)OCC(=O)Nc1ncc(Cl)c(C)c1Cl (stereo unspecified)	0.6%	-5	-10%	-1%
O=C(NC1CCCCC1)c1nn2c(C(F)(F)F)cc(-c3ccco3)nc2c1Br	0.7%	1	2%	-1%
Cc1ccc(C)c(N2CCN(c3ccc([N+](=O)[O-])cn3)CC2)c1	1.0%	.	2%	-1%
CCCCCC(=O)N/N=C/c1cc(Br)c(O)c(OC)c1	1.9%	-21	-6%	-10%
CCOC(=O)Cc1csc(NC(=O)COc2cc(C)cc(C)c2)n1	-3.5%	0	-2%	-1%
CC(=O)c1ccc(N2CCN(C(=O)c3cc4c(C)nc5ccccc5c4o3)CC2)cc1	-1.4%	.	?	2%
CCN1C(=O)[C@H]2[C@@H](c3ccc(-c4ccc(F)cc4)c(OC)c3)N[C@@](Cc3ccccc3)(C(=O)OC)[C@H]2C1=O	-1.1%	.	-2%	.
CCOC(=O)Nc1nc(C)c(C(=O)N(C)C)s1	-3.7%	6	1%	-4%
Cc1cccc2nc(-c3ccco3)c(Nc3ccc4c(c3)OCO4)n12	-0.2%	3	4%	19%&23%
CCN1CCN(CCOc2ccccc2OCc2ccccc2)CC1	0.2%	7	-1%	-3%
Cc1ccc(S(=O)(=O)NCc2ccc(C(=O)NCc3cccnc3)cc2)cc1	.	-3	.	0%
COc1ccc([N+](=O)[O-])cc1NC(=O)C(C)Sc1ccc(C)cc1 (stereo unspecified)	0.8%	-11	2%	1%
COc1ccccc1CCN1CCCC(CN(C)Cc2ccc(OCCO)cc2)C1 (stereo unspecified)	1.1%	.	-8%	0%
O=C(Cc1ccc(S(=O)(=O)N2CCCC2)s1)N1CCN(c2ccccc2)CC1	?	1	-12%	-12%
O=C(OCc1ccc([N+](=O)[O-])cc1)c1ccccn1	1.7%	-7	3%	0%
COc1ccccc1N1CCN(Cc2ccc(OC)c(OC)c2OC)CC1	-1.0%	5	1%	5%
Cc1c(OCc2ccc(C(=O)O)cc2)ccc2c(-c3ccccc3)cc(=O)oc12	0.3%	-2	-5%	-2%
Cc1nn(CCCC(=O)Nc2nccs2)c(C)c1[N+](=O)[O-]	-4.3%	1	12%	3%

Copied from the entries so far, 3 compounds:
SMILES	Rango complex inh	GLA inh pH 4.5	Rango release inh	miR-21 FLuc
COc1ccccc1N1CCN(Cc2ccc(OC)c(OC)c2OC)CC1	-1.0%	5	1%	5%
Cc1c(OCc2ccc(C(=O)O)cc2)ccc2c(-c3ccccc3)cc(=O)oc12	0.3%	-2	-5%	-2%
Cc1nn(CCCC(=O)Nc2nccs2)c(C)c1[N+](=O)[O-]	-4.3%	1	12%	3%

Further results
SMILES	Rango complex inh	GLA inh pH 4.5	Rango release inh	miR-21 FLuc
CC(C)(C)c1ccc(/C=N/NC(=O)c2ccccn2)cc1	-6.6%	-13	-4%	-24%
COc1ccc(OCC(=O)NNC(=O)c2cccc(S(=O)(=O)N(C)C)c2)cc1	1.0%	4	9%	-8%
Cc1ccccc1CSCc1nc2ccccc2[nH]1	3.5%	-5	1%	-37%
Cc1cnc(NC(=O)COc2cccc3c2OC(C)(C)C3)s1	0.9%	2	0%	27%
c1ccc(C2=Nc3ccccc3NC(c3ccccc3)C2)cc1 (stereo unspecified)	?	-3	-13%	-43%
CCN(C(=O)CSc1nc2ccc(OC)cc2[nH]1)c1c(N)n(Cc2ccccc2)c(=O)[nH]c1=O	-2.7%	.	13%	.
COc1ccccc1-c1noc(CSc2nc(N)cc(=O)[nH]2)n1	0.4%	5	10%	-4%
Cc1ccc(C(C)(C)C)c(OCCN2CCCC2)c1	-2.7%	-2	3%	-7%
Cc1nc2sc(C(c3ccccc3)N3CCN(CCO)CC3)c(O)n2n1 (stereo unspecified)	2.7%	10	?	-1%
CCc1nc2oc(C(=O)c3ccccc3)c(N)c2c2c1COC(C)(C)C2	?	0	-13%	-1%
Fc1ccccc1CSc1ccc(-c2ccco2)nn1	0.7%	-4	-7%	-52%
CC(=O)N1CCOc2ccc(S(=O)(=O)NCC3CCC(C(=O)NCCC(C)C)CC3)cc21 (stereo unspecified)	1.6%	.	-15%	11%
COc1ccc(NC(=O)CN(C)CC(=O)Nc2cccc(F)c2)cc1S(=O)(=O)N1CCCCC1	1.2%	.	0%	.
C[C@@H]1COC(=O)[C@@H](Cc2ccc(F)cc2)C/C=C\C[C@H](CC(=O)N(CCO)Cc2ccccc2)C(=O)N1	-3.5%	.	2%	.
COc1ccc2c(c1OC)C[N+]1([O-])CCc3cc4c(cc3C1C2)OCO4 (stereo unspecified)	1.9%	5	-10%	1%
CC(=O)C1=C(O)C(=O)N(c2cccc(C(=O)O)c2)C1c1ccc(F)cc1 (stereo unspecified)	0.4%	-8	1%	-2%
O=C(c1cc2ccccc2cc1O)N1CCN(c2ccccn2)CC1	0.3%	.	-5%	-1%
O=C(O)c1ccc(-c2noc(-c3ccc(F)cc3)n2)cc1	-3.5%	.	-13%	.
COc1ccc(Br)cc1C1CC(=O)N2CN(C)CSC2=C1C#N (stereo unspecified)	-1.4%	-11	-19%	-3%
Cc1scc(C(=O)NNC(=S)NCc2ccccc2)c1C	-1.5%	2	1%	-13%
O=C(CN1CCOCC1)Nc1ccccc1F	-2.6%	.	-2%	-2%
Cc1ccc(S(=O)(=O)NC(C)(C)CN2CCc3ccccc3C2)cc1	1.4%	-8	10%	-1%
Cc1ccc(OCC(=O)NNC(=O)C(=O)NC(C)(C)C)cc1	-0.4%	4	4%	-9%
Cc1ccc2nc(SCC(=O)N3CCC(Cc4ccccc4)CC3)nc(=O)n2c1	0.1%	.	-7%	.
COc1ccc(/C=N/Nc2cc(N3CCOCC3)nc(C)n2)c(OC)c1	0.6%	.	14%	-4%
O=C(Nc1ccc2c(c1)OCO2)C1CCN(C(=O)c2ccc([N+](=O)[O-])cc2)CC1	-2.6%	4	15%	1%
COCCCNC(=O)CNC(=S)N(Cc1ccccc1F)C1CCCCC1	-1.0%	0	-6%	3%
CC(C)=NOc1nc(N2CCOCC2)nc(N2CCOCC2)n1	?	-5	2%	-1%
Cc1nc2ccccc2c(=O)n1NCc1cccs1	-3.4%	-22	-3%	-1%
COc1cccc(C(=O)NCCCc2ccccc2)c1OC	-2.5%	.	-11%	.
Cc1ccc(C(=O)N(Cc2nc3ccccc3c(=O)[nH]2)C2CCCC2)cc1	0.4%	11	1%	24%
O=C1N(c2ccc(Cl)cc2)C(c2ccc(Cl)cc2)N2CCCN12 (stereo unspecified)	1.5%	-4	0%	-15%
CC(C)Cc1nnc(NC(=O)CN2C(=O)c3ccccc3C2=O)s1	?	-17	18%	0%
O=C(Nc1ccc(F)cc1)C1CCN(C(=O)NCc2ccccc2)CC1	-0.1%	.	3%	4%
O=C(c1ccc(N2CCCC2=O)cc1)N1CCOCC1	2.3%	-15	-5%	-9%
COc1cccc2c1C(=O)c1c(O)c3c(c(O)c1C2=O)CC(O)(C(C)=NNC(=O)c1ccc(Cl)c(Cl)c1)CC3OC1CC(N)C(O)C(C)O1 (stereo unspecified)	15µM*	.	9%	.
CCc1ccc(C(=O)NN(C(=O)c2ccc(CC)cc2)C(C)(C)C)cc1	-1.7%	4	-2%	-2%
CCN1CCN(Cc2ccc(NC(=O)c3ccc(C)c(NC(=O)c4ccno4)c3)cc2C(F)(F)F)CC1	-0.9%	-2	0%	17%
O=C(Nn1c(SCc2cccc([N+](=O)[O-])c2)nc2ccccc2c1=O)c1ccccc1	2.8%	-5	-5%	-46%
COc1ccc(OCCCN2CCCCCC2)cc1	1.6%	4	0%	-1%
CC(NC(=O)c1ccncc1)c1ccccc1 (stereo unspecified)	0.2%	.	7%	0%
Cc1cc(=O)oc2c3c(cc(OCC(=O)Nc4cccnc4)c12)OC(C)(C)CC3	2.7%	.	3%	-7%
Cc1ccc(N(C(C)C(=O)Nc2cc(Cl)ccc2Oc2ccccc2)S(C)(=O)=O)cc1 (stereo unspecified)	0.9%	-14	-6%	22%
CS(=O)(=O)c1ccc(Cl)c(NC(=O)CSC(=S)N2CCCC2)c1	8.7%	.	24%	.
COc1ccc(Cl)cc1NC(=O)N1CCN(C2CCCCC2)CC1	-3.9%	-7	15%	-11%
O=C1OCCN1C(=O)[C@H]1[C@H](c2ccc([N+](=O)[O-])cc2)C(c2cccc(Cl)c2)=NN1c1ccc(Br)cc1	-0.3%	-9	0%	.
O=C(CCC(=O)N1CCOCC1)c1ccc(F)cc1	1.1%	4	-11%	-22%
O=C(NCCCCc1ccccc1)C1CC(c2ccccc2[N+](=O)[O-])=NO1 (stereo unspecified)	-3.4%	-19	-4%	-7%

Record cards, as listed above.
`CCc1ccc(C(=O)NN(C(=O)c2ccc(CC)cc2)C(C)(C)C)cc1` is listed as Rango complex inh: -1.7%; GLA inh pH 4.5: 4; Rango release inh: -2%; miR-21 FLuc: -2%
`COc1ccc(OCCCN2CCCCCC2)cc1` is listed as Rango complex inh: 1.6%; GLA inh pH 4.5: 4; Rango release inh: 0%; miR-21 FLuc: -1%

New compounds follow.
SMILES	Rango complex inh	GLA inh pH 4.5	Rango release inh	miR-21 FLuc
COc1ccc(CNC(=O)CN(c2ccccc2)S(=O)(=O)N(C)C)cc1	-2.3%	-4	-13%	-1%&-7%
CCN(CC(=O)NCc1ccc(Cl)cc1)C(=O)CSc1ccc(Br)cc1	1.3%	.	-7%	21%
COc1ccccc1NC(=O)CN1CCC(C(=O)c2ccc(F)cc2)CC1	-1.1%	-1	-2%	-7%
Cc1cc(C(=O)COC(=O)CN(C)S(=O)(=O)c2ccc(Cl)cc2)c(C)n1Cc1cccs1	?	0	-10%	-19%
COc1ccc(OC)c(C(c2nnnn2CC2CCCO2)N2CCN(C)CC2)c1 (stereo unspecified)	1.0%	-15	14%	-9%
O=c1cc(CO)oc(CN2CCN(CCO)CC2)c1O	1.3%	5	-13%	0%
CC(CCN1CCN=C1N(C)C)c1ccccc1 (stereo unspecified)	-2.0%	.	1%	.
CC(C)CNC(=O)CC(=O)N/N=C/c1cccs1	-0.5%	2	3%	-8%

Screens deposited in PubChem BioAssay by National Center for Advancing Translational Sciences (NCATS).

A portion of the library; rates above refer to the full screens.
